# Compound activity deposited in PubChem BioAssay by several laboratories.
# PABP FP inh: PABP-poly(A) binding inhibition; inhibition, % at 35 µM; P11940; PABP-poly(A) RNA binding, fluorescence polarization; 290,000 tested, 1% active;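 active = 50% or more with normal probe brightness, or confirmed in later tests; about a fifth of its hits are not listed in these tables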;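 also: calls also rest on retests at 20 µM and on dose response follow-up; controls were probe without protein and protein plus probe with vehicle; some compounds called inactive have numbers as strong as hits; many hits fall short of the cut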
# Target sequence (P11940 whole entry, looked up): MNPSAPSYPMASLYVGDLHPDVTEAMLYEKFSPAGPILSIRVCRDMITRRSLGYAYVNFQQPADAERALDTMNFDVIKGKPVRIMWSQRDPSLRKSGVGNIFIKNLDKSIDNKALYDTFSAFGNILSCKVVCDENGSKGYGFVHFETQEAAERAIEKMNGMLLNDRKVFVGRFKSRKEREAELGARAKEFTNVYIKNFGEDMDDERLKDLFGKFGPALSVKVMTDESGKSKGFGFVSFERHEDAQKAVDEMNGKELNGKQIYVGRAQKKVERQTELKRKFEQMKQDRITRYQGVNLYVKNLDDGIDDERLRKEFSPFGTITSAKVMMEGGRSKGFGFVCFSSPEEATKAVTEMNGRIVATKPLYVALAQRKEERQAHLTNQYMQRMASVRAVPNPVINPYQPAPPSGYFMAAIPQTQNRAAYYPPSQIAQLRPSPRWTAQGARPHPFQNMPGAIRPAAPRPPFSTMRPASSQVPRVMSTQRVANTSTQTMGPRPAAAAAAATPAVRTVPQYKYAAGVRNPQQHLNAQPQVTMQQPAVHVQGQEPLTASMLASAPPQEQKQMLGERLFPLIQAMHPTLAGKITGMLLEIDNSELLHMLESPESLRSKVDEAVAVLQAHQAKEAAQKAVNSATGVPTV
# eIF4H FP inh: inhibitors of RNA binding by human eIF4H. eIF4H fluorescence polarization binding assay. Q15056. inhibition, % at 35 µM. AID 2012. 290,000 tested, 0.94% active;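 active = 50% or more with normal probe brightness, or confirmed in later tests; about a fifth of its hits are not listed in these tables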;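 also: calls also rest on retests at 20 µM and on dose response follow-up; 0% = protein and probe with vehicle and 100% = probe without protein; strong numbers were not always called active; many hits fall short of the cut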
# CSC inhib: blocks cancer stem cells; inhibition, % at 7.5 µM; 300,000 tested, 1.1% active; cancer stem cell-like cells viability, luminescence;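 active = mean at 75% or more and at least half the replicates too; tested in HMLE shEcad cells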;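 also: 0% = median of negative and 100% = median of positive control wells; the first replicate is given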
# Yeast UUG start: alters start codon recognition fidelity in yeast | S. cerevisiae UUG-firefly luciferase reporter, luminescence/redox ratio | AID 602363 | activity score, % at 18.7 µM | 350,000 tested, 0.13% active;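 active = replicate mean at a twofold rise or more, about +100% in these data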;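 also: firefly luciferase made from a UUG start codon reports start codon fidelity; reporter light over untreated wells divided by growth signal over untreated wells; some hits fall short of that in this replicate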
# Rce1 inhib: yeast Ras-converting enzyme inhibition. Q03530. yeast membranes, quenched prenylated peptide cleavage fluorescence. calls only. 290,000 tested, 0.27% active. AID 2563;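 active = fall in fluorescence gain of 50% or more versus controls, with final raw signal at or below 3038400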;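 also: plate controls were neutral control wells for no effect and wells lacking membranes for full effect; tested at 10 µM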
# MT1-MMP act inh: blocks activation of human MT1-MMP; P50281; HT1080 RFP-PRO-GFP cells, GFP/RFP ratio fluorescence, overnight; percent of plate control window, DMSO zero; GFP/RFP ratio change, % at 20 µM; 360,000 tested, 0.061% active;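 active = GFP/RFP ratio change of at least 30% with cell ATP level not reduced by more than half and red fluorescence within 50% of control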; also: strong numbers were not always called active
#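 Assay system – RFP-PRO-GFP reporter HT1080 cells · Compound dosing – single dose of 20 µM compound, 1% DMSO final · Incubation – overnight compound exposure at 37 °C · Measure – GFP/RFP fluorescence ratio · Benchmarks – DMSO wells and RFP-L50D-GFP cells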
# HIV Env fusion: HIV envelope-mediated fusion inhibition | HeLa-JRFL Env/CEM21 cell fusion, luciferase | inhibition, % at 12.3 µM | 360,000 tested, 1.1% active | AID 651610;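 active = mean replicate inhibition score of at least 50 and every replicate individually at or above 50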;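 also: 0% = plate neutral controls and 100% = maraviroc near 300 nM; one replicate is shown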
# MT1-MMP act inh RFP: recorded beside MT1-MMP act inh, whose call it bears; RFP signal change, %; measured here: RFP expression control read;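 0 = vehicle wells; hits needed this value within 50% of zero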
# * = called active by the depositor; i = inactive; . = no result given; + = active, no number. An unsorted share of the library; 3% or so of the library scored in one or more.
SMILES,PABP FP inh,eIF4H FP inh,CSC inhib,Yeast UUG start,Rce1 inhib,MT1-MMP act inh,MT1-MMP act inh RFP,HIV Env fusion
CC(=O)Nc1nc2ccc(C(=O)NCCOC(=O)C3CCCCC3)cc2s1,-9,-8,-13,-12,i,3,8,2
c1ccc2c(COn3nnc4ccccc43)cccc2c1,-5,-3,-7,-12,.,4,5,-116
N#C/C(=C\c1ccccc1)C(=O)N1CCN(c2ccccc2F)CC1,-4,-5,.,2,i,0,2,-5
CCOc1cccc(NC(=O)CSc2nncn2N)c1,5,-2,-2,-27,i,1,4,.
CC(NC(=O)COc1ccccc1F)C1CC2CCC1C2 (stereo unspecified),-2,-5,-10,.,i,3,0,4
CN(C)/C=C(/C(=O)c1ccc(Cl)cc1)S(C)(=O)=O,2,6,12,.,i,-2,2,1
COc1cc(NC(=O)C23CC4CC(C2)CC(n2cnc([N+](=O)[O-])n2)(C4)C3)cc(OC)c1,1,-7,2,7,i,-1,-2,0
CC(C)(C)C(=O)/C=c1\[nH]c(=O)/c(=C\c2ccccc2F)s1,8,-4,.,.,i,-2,-5,16
Cc1ccc(Cn2cc(/C=N/Nc3ccc([N+](=O)[O-])cn3)c3ccccc32)cc1,50,-7,-4,-18,i,-24,-15,-5
CC1(C(=O)Nc2cccc(Oc3ccccc3)c2)CCN1C1Cc2ccccc2C1 (stereo unspecified),.,.,.,-5,.,1,-5,9
O=C(CCS(=O)(=O)c1ccc(Br)cc1)Nc1ccccc1Cl,5,-6,-11,-4,i,0,0,-120
Cc1ccc(S(=O)(=O)N2CCOCC2)cc1NC(=O)CSc1ccccn1,10,-10,-4,-11,i,1,2,0
COC(=O)C(NC(=O)C(NC(=O)C1CCC(C)CC1)C(C)C)C(C)C (stereo unspecified),.,.,-10,13,i,-2,-3,20
Cc1cc(Cn2nc(-c3ccccc3)cc2C(=O)NCc2cccs2)on1,.,.,-4,-5,i,11,-2,-33
O=C(Nc1ccccc1)c1nc[nH]c1C(=O)N1CCN(c2ccccc2)CC1,.,.,-2,1,.,5,5,11
Nc1nc(SCc2ccccc2Cl)[nH]c(=O)c1-c1ccccc1,4,7,1,-13,.,-5,-4,-27
COc1ccc(CNC(=O)OCc2nccnc2C(=O)Nc2ccc(Br)cn2)cc1,0,-13,4,-12,i,4,1,-17
NC(=S)Nc1ccc(Cl)c(Cl)c1,6,-1,12,.,i,6,5,-22
CN(C)S(=O)(=O)c1ccc(NC(=O)C2COc3ccccc3O2)cc1 (stereo unspecified),-10,-3,1,-16,i,4,1,1
CCn1c(CNC(=O)c2ccccc2)nc2ccccc21,.,.,.,-22,i,2,3,.
COc1ccc(C(CNC(=O)c2ccc(C)c(S(=O)(=O)N3CCOCC3)c2)N2CCCC2)cc1 (stereo unspecified),.,.,.,1,.,-1,1,0
CCN1CCN(c2ccc(S(=O)(=O)N3CCCCC3)cc2NC(=O)/C=C/c2ccc(OC(F)F)cc2)CC1,.,.,10,8,i,1,2,-4
COCCNC(=O)COC(=O)/C=C/c1c(C)nn(Cc2ccc(Cl)cc2Cl)c1Cl,-9,-2,19,.,i,-2,-9,.
CC1CC(C)(C)NC(=S)N1CCCC(=O)NCc1ccccc1 (stereo unspecified),-2,-8,-2,-18,i,-1,-2,0
O=S(=O)(NC1c2cccc3cccc(c23)C1N1CCNCC1)c1ccc(Cl)cc1 (stereo unspecified),-10,10,0,.,i,-17,-3,-18

# The listing continues:
SMILES,PABP FP inh,eIF4H FP inh,CSC inhib,Yeast UUG start,Rce1 inhib,MT1-MMP act inh,MT1-MMP act inh RFP,HIV Env fusion
Cc1ccc(C=Nc2ccccc2C#N)s1,-5,1,-2,2,i,6,9,9
Oc1ccc(-c2nc3ccccn3c2NCc2ccc3c(c2)OCO3)cc1,-1,1,-7,0,+,2,1,.
Nc1cc(C(=O)O)ccc1Nc1ccccc1,15,0,-1,-19,i,23,18,-128
CNC(=O)NC(=O)C(OC(=O)c1cccc(S(=O)(=O)N2CCCCC2)c1)c1ccccc1 (stereo unspecified),1,-10,.,.,i,4,0,-15
CN1CC(=O)N2C(c3ccc(Cl)cc3)c3[nH]c4ccccc4c3C[C@H]2C1=O (stereo partly specified),16,-7,8,7,i,1,2,32
COc1ccc(-c2oc(/N=C/N3CCOCC3)c(C#N)c2-c2ccc(OC)cc2)cc1,4,-2,-5,5,i,0,-6,-19
COc1ccc(C(=O)/C=C/Sc2nc3ccccc3o2)cc1,-13,1,-7,-16,i,14,8,-284
Cc1ccc(NC(=O)CC2=NC(=O)C(CC(=O)Nc3ccccc3F)S2)cc1 (stereo unspecified),9,-7,-2,-14,i,-2,-3,-9
O=C(c1cccc(N2C(=O)C3C4C=CC(C4)C3C2=O)c1)N1CCCCCC1 (stereo unspecified),-2,-10,-6,.,i,1,3,.
CC(C)NC(=O)c1ccc2c(c1)N(Cc1ccccc1)C(=O)C(C)(C)O2,4,18,-4,-6,i,-5,1,-1
CCN(CC)c1ccc(NC(=O)c2cc3c(OC)cccc3[nH]2)cc1,-13,-6,47,-15,i,6,-4,-18
COc1ccc(OCCNC(=S)Nc2cccc3ccccc23)cc1,4,-3,17,-23,i,7,-1,2
CCOC(=O)c1cc2c(=O)n3ccccc3nc2n(CCOC)c1=NC(=O)C(C)(C)C,1,-8,-17,38,i,3,-1,-44
C#CC[N+](C)(C)CCN1C(=O)C2C(c3ccccc3)C=CC(c3ccccc3)C2C1=O (stereo unspecified),-21,-15,7,.,i,-1,2,15
CN(c1ccccc1)C(c1ccc(F)cc1)c1nnnn1C1CCCC1 (stereo unspecified),-14,-11,-4,-9,i,-4,-3,30
CCn1c(CC(=O)Nc2ccc(F)cc2)nnc1SCC(=O)N1CCOCC1,2,-6,-19,-6,i,-1,4,-3
CC1(C(=O)NS(=O)(=O)c2cccc(C#N)c2)CCN1C(=O)CCC1CCCC1 (stereo unspecified),.,.,.,-10,.,-1,7,-200
O=[N+]([O-])c1cc(/C=N/n2c(-c3ccncc3)n[nH]c2=S)ccc1Cl,16,40,.,.,i,2,0,-18
COc1cccc(Nc2ncccc2C(=O)Nc2ccccc2)c1,13,3,6,-9,i,-5,3,-49
Cc1ccccc1NC(=O)C1=CC=CN2CCS(=O)(=O)N=C12,.,.,.,-14,.,9,1,3
Cc1cccc(N2CCN(S(C)(=O)=O)CC2)c1C,3,-6,-8,12,i,7,6,-13
O=C(NC1CCCCC1)c1ccc(CS(=O)Cc2ccc(Cl)cc2)o1 (stereo unspecified),4,-7,-15,-6,i,5,-1,-2
Nc1nc(SCC(=O)NN(c2ccccc2)c2ccccc2)n[nH]1,-4,-6,-5,.,.,-1,4,11
CC(C)CC(C(=O)NC1CCCCC1)N(Cc1cccs1)C(=O)c1snc(C(N)=O)c1N (stereo unspecified),-8,10,-20,.,i,-4,-6,33
O=C(CSc1ccc(-c2ccccc2)nn1)NC1CCCC1,-5,0,1,-34,i,1,-6,-5

# New compounds follow:
SMILES,PABP FP inh,eIF4H FP inh,CSC inhib,Yeast UUG start,Rce1 inhib,MT1-MMP act inh,MT1-MMP act inh RFP,HIV Env fusion
CS(=O)(=O)N(CC(O)Cn1c2ccccc2c2ccccc21)c1cccc2ccccc12 (stereo unspecified),14,16,-6,-6,i,-6,-6,.
COc1ccc(C)cc1NC(=O)CSc1nnc(-c2ccc(Br)cc2)o1,-8,-1,6,-4,i,3,-10,.
C=CCn1c(SCC(=O)c2[nH]c(C)c(C(C)=O)c2C)nnc1-c1ccncc1,8,14,-14,-3,i,5,-2,.
Cc1cccc(OCC(=O)NCc2n[nH]c(=O)c3ccccc23)c1,.,.,-12,-10,i,1,-1,-6
Cc1cccn2c(CNCCc3ccccn3)c(C(=O)N3CCOCC3)nc12,-4,-5,4,-6,i,0,6,18
Cc1cccc(N(CC(O)CN2CCCC2)S(=O)(=O)c2ccccc2)c1 (stereo unspecified),2,5,-8,-11,i,-8,1,-5
COC(=O)c1ccc(C)c(NC(=O)CN(c2cc(OC)ccc2OC)S(C)(=O)=O)c1,0,0,-16,0,.,.,.,.
CCN1C[C@@H]2[C@@H]3C(=O)N(C)C(=O)[C@@H]3[C@](C)(C1=O)N2C(=O)c1ccc(C(C)(C)C)cc1,.,.,.,-5,.,-1,-2,-4
Cc1ccc(-c2nnn(CC(=O)N(C)C3CCCCC3)n2)o1,-4,2,14,-3,i,-6,-6,-6
CC(c1nc2ccccc2c(=O)[nH]1)N(C)CCOc1ccc(Cl)cc1 (stereo unspecified),-8,-1,29,-7,i,1,2,97*
Cc1sc2ncnc(N3CCC(C(=O)NNC(=O)c4ccccc4Cl)CC3)c2c1C,6,12,5,-3,i,-4,-12,.
COc1ccc(OC)c(C(C)NC(=O)c2ccc(Br)cc2)c1 (stereo unspecified),2,-4,-7,-15,i,10,3,.
O=C(CSc1cccc[n+]1[O-])NC(=O)c1ccc(OC(F)F)cc1,-9,0,.,.,i,1,5,-2
CCOC(=O)c1ccc(N2C(=O)CC(N3CC(C)OC(C)C3)C2=O)cc1 (stereo unspecified),-2,-7,-3,-15,i,1,2,.
COc1ccc(N2CC(C)(C)C2=O)cc1,18,9,-2,7,i,-1,0,18
COc1ccc(/C=N/NC(=O)C2(O)c3ccccc3-c3ccccc32)cc1,-9,-2,0,-8,i,4,8,19
Cc1ccc(S(=O)(=O)N2CCN(C(=O)CN3CCCCC3)C2)cc1,-4,-6,18,1,i,-1,3,33
Cc1nc2cc(NC(=O)NCCCO)ccc2o1,-6,8,5,-11,i,1,4,7
COC(=O)/C=C1/N/C(=N\c2nc(C)cc(C)n2)N(c2cccc(C)c2)C1=O,10,-2,-4,4,i,-4,-4,14
CN1CCN(NC(=O)c2ccc(S(=O)(=O)N3CCCCCC3)cc2)CC1,4,0,3,-14,i,-1,3,-1
Cc1cccc(C)c1OCC(=O)N1CCc2ccccc2C1,2,-6,-6,5,i,1,-2,-2
O=C1C2C3C=CC(C3)C2C(=O)N1CCCO (stereo unspecified),-6,-7,0,4,i,6,9,-58
CS(=O)(=O)N(CC(=O)O)c1ccc(C23CC4CC(CC(C4)C2)C3)cc1,4,0,-30,-19,i,5,1,7
COc1cc(NC(=O)COc2ccc3c(C)cc(=O)oc3c2C)cc(OC)c1OC,2,-15,12,-29,i,4,-1,-13
O=Cc1cn(-c2ccc(F)cc2)c2ccccc12,3,-7,19,.,i,1,-1,.
Nc1ccc(Oc2ccc3c(c2)C(=O)NC3=O)cc1,3,6,-7,-11,i,3,1,5
CC(C)(C)C(=O)NC(=S)Nc1ccc(S(=O)(=O)Nc2nccs2)cc1,-3,-15,-5,.,i,1,-1,0
COC(=O)CNC(=O)c1ccc(OC2CCN(C(=O)C3CC3)CC2)cc1,0,36,-12,-12,i,-7,-3,12
Cc1cc(C)cc(OCC(=O)OCC(=O)N(CC(C)C)c2c(N)n(Cc3ccccc3)c(=O)[nH]c2=O)c1,.,.,-7,-5,i,2,5,.

# Compound profiles (already shown). Screens in order: PABP FP inh, eIF4H FP inh, CSC inhib, Yeast UUG start, Rce1 inhib, MT1-MMP act inh, MT1-MMP act inh RFP, HIV Env fusion
# Results for Cc1cccc(N2CCN(S(C)(=O)=O)CC2)c1C → 3, -6, -8, 12, i, 7, 6, -13
# Results for CN(C)S(=O)(=O)c1ccc(NC(=O)C2COc3ccccc3O2)cc1 (stereo unspecified) → -10, -3, 1, -16, i, 4, 1, 1
# Results for C#CC[N+](C)(C)CCN1C(=O)C2C(c3ccccc3)C=CC(c3ccccc3)C2C1=O (stereo unspecified) → -21, -15, 7, ., i, -1, 2, 15
# Results for COCCNC(=O)COC(=O)/C=C/c1c(C)nn(Cc2ccc(Cl)cc2Cl)c1Cl → -9, -2, 19, ., i, -2, -9, .
# Results for Cc1cccn2c(CNCCc3ccccn3)c(C(=O)N3CCOCC3)nc12 → -4, -5, 4, -6, i, 0, 6, 18
